VDR inh: Inhibitors of the vitamin D receptor (VDR): qHTS | VDR-SRC2-3 peptide fluorescence polarization, 2 h | Potency, µM, without a hit: max response, negative = inhibition, usual class: inhibitors | 400,000 compounds, 0.93% hits; active = well fitted inhibition curve with a large enough effect; inconclusive = small, poorly fitted or top-dose-only effect, or another doubt; inactive = no such curve, though single readings can be large or run the other way; also: series mostly up to about 120 µM
Target sequence (P11473 whole entry, looked up): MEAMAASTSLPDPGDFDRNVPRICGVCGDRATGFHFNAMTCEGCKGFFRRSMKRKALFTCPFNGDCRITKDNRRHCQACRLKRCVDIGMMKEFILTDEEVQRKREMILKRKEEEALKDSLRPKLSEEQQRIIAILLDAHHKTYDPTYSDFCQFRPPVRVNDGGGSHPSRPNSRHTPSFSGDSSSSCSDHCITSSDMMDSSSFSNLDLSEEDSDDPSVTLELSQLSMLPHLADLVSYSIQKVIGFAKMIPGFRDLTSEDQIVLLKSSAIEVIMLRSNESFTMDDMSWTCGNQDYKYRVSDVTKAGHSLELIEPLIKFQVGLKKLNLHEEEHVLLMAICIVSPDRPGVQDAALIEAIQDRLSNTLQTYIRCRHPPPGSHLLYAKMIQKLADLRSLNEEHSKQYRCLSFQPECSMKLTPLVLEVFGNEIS
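Measured by FP: displacement of SRC2-3 coactivator peptide from VDR by library compounds, following a two-hour ambient incubation.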
* marks the source's active call; other numbers are inactive results; ? = inconclusive; & = joins results of further samples. % is scaled to controls: 0 for no effect and ±100 for the full control effect; potency is read from the fitted curve at half-maximal effect. The list is partial; count on the stated rates, not on these rows.

VDR inh,structure
1%,CCOc1ccc(CNCc2c(C(=O)O)c(C)n(Cc3cccc(OC)c3)c2C)cc1OC
1%,CCN(CC)C(=O)c1sc(NC(=O)C(Sc2ccccc2)c2ccccc2)c(C(=O)OC(C)C)c1C (configuration not stated)
3%,O=C(COC(=O)c1ccccc1SCC(=O)NC1CCCCC1)NC1CCCCC1
24%,CC1CCN(c2ccccc2N)CC1
21%,CC1(C)Cc2c(sc(NC(=O)c3ccco3)c2C#N)CO1
-22%,CCC1=C(OC(=O)N(CC)CC)N2C(=O)OC(=NCCc3c[nH]c4ccccc34)[C@]2(C)[C@H]2C1=CC[C@H]1C(=O)NC(=O)[C@H]12
0%,Cc1nc2cc(NC(=O)CS(=O)(=O)c3ccccc3)ccc2s1
-1%,CCOc1ccc(C(=O)Oc2cc(C)[nH]c(=O)c2[N+](=O)[O-])cc1
-28%,Cc1ccc(-c2csc3ncnc(Sc4nnc(CN5CCCCCC5=O)o4)c23)cc1
-13%,CCc1nc2c(cnn2-c2ccc(Cl)cc2)c(=O)n1-c1ccc2c(c1)OCCO2
16%,Cc1noc(C)c1C(=O)Nc1nccs1
-9%,Cc1nc(NC(=O)CSc2nnnn2C)sc1C
-2%&2%,COc1ccc(CCCc2nnc(SCC(=O)Nc3ccc(C)c(C)c3)o2)cc1
-4%,CC1=C(C(=O)OCC2CCCCC2)C(c2cccc(Cl)c2Cl)CC(=O)N1 (configuration not stated)
-8%,COc1cc(OC)c(NC(=O)C2=C(C)C(=O)OC23CCN(C(C)=O)CC3)cc1Cl
-6%,COc1ccccc1CNC(=O)COC(=O)c1cccc(S(=O)(=O)N2CCCC2)c1
-17%,CCCCOC(=O)c1ccc(NC(=O)c2cnccn2)cc1
5%,O=C(Cn1cncn1)c1ccc(F)cc1F
15%,Cn1c(CNC(=O)c2ccco2)nnc1SCC(=O)N1CCN(c2ccccc2F)CC1
15%,COc1cc(Cl)c(C)cc1NC(=O)CSc1nnc(CN2CCCC2)o1
-2%,COc1ccc(Nc2ncnc3ccccc23)cc1
-6%,Cc1cc(C)cc(NS(=O)(=O)c2cc3c(cc2C)NC(=O)CO3)c1
2%,Cc1ccc(-c2nc(N)c3c(-c4ccc(C)cc4)nn(C(C)(C)C)c3n2)cc1
-24%,CC(=O)N1CCN(S(=O)(=O)c2cccc(C(=O)OCc3ccc(C(C)(C)C)cc3)c2)CC1
16%,CCOC(=O)c1c(C)[nH]c(N=Nc2ccccc2C)c1C
-11%,O=C(O)C1C2CC3C(OC(=O)C31)C2Cl (configuration not stated)
-5%,O=C(NCC(c1ccco1)N1CCN(c2ccc(F)cc2)CC1)OCc1ccccc1 (configuration not stated)
?,CCOc1cc2c(cc1OC)C(c1cccc([N+](=O)[O-])c1)NCC2 (configuration not stated)
16%,COC(=O)c1c(NC(=O)CCCOc2ccccc2C)sc2c1CCC(C)C2 (configuration not stated)
-19%,COC(=O)[C@@H]1C[C@@]2(O)[C@H](O)[C@H](O)[C@H](O)C[C@H]2N1C/C=C/c1ccccc1
-11%,CC(=O)C1=C(O)CC(c2ccccc2)CC1=NCCc1ccccc1 (configuration not stated)
7%,CC(C)c1ccc(S(=O)(=O)N2CCC3(CC2)OCCO3)cc1
-3%,O=C(O)CCC(=O)N1CN2CN(C(=O)CCC(=O)O)CC([N+](=O)[O-])(C2)C1
-8%,COc1ccc(NC(=O)NNC(=O)c2ccc(-c3ccccc3)cc2)cc1
0%,CC(C)C(NS(=O)(=O)c1cccc2nsnc12)C(=O)NCCC1=CCCCC1 (configuration not stated)
-4%,CCn1cc(C(=O)N2CCN(c3cc(C)ccc3C)CC2)c(=O)c2cc(S(=O)(=O)N(C)C3CCCCC3)ccc21
-6%,Cc1cccc(CCNC(=O)c2cc(S(=O)(=O)N3CCCC3)cn2C)c1
-7%,c1ccc(Cn2cc(CN3CCCO3)c(-c3ccc4c(c3)OCO4)n2)cc1
-3%,CC(C)(C)c1ccc(S(=O)(=O)N2CCN(CCC#N)CC2)cc1
-3%,COc1ccc(S(=O)(=O)N2CCN(CCc3ccccc3)CC2)cc1
-21%,CCOc1cc2[nH]c(=O)n(CCCC(=O)N(C)Cc3ccccc3)c(=O)c2cc1OCC
16%,CC(C)NC(=O)CN1CCC(O)(c2ccccc2)CC1
11%,CSc1ccc(CCNC(=O)C2CCCN(c3ncnc4c3nc3n4CCCCC3)C2)cc1 (configuration not stated)
-13%,O=C(O)CC/C(=N/Nc1ccc([N+](=O)[O-])cc1)C(=O)O
-4%,CN(C)CCNC(=O)C(C(=O)c1ccc(F)cc1)n1ccccc1=O (configuration not stated)
-6%,CCOC(=O)c1[nH]c(C)c(C(=O)c2cc(F)ccc2F)c1C
-8%,CN(C)c1ccc(/C=C(\C#N)c2nc(-c3ccc(Cl)c(Cl)c3)cs2)cc1
0%&-7%,CCCCN(C)CC(O)Cn1cc(/C=C/C(=O)c2ccc(C)cc2)c2ccccc21 (configuration not stated)
-29%,Cc1ccnc(SCC(=O)c2ccc([N+](=O)[O-])cc2)n1
10%,CC(=O)N1CCc2cc(S(=O)(=O)N3CCCCCC3)ccc21

The listing continues:
VDR inh,structure
9%,COc1ccc(COC(=O)C2CCN(S(=O)(=O)c3ccc(Cl)cc3)CC2)cc1
5%,O=C(CCSCCC(=O)NN=Cc1cccc(Cl)c1)NN=Cc1cccc(Cl)c1
-11%,O=C(NCC(c1cccs1)N1CCOCC1)c1cc2ccccc2oc1=O (configuration not stated)
11%,Cc1ccc(CNC(=O)C2CCCN(c3cnccn3)C2)cc1 (configuration not stated)
5%,COc1ccc(/C=C/c2c(-c3ccc(OC)cc3)oc3ccccc23)cc1
-10%,COc1ncccc1-c1nnn(-c2ccc(Cl)nc2)n1
9%,Cc1ccc(S(=O)(=O)NC(=O)N(CCC#N)Cc2ccccc2)cc1
-11%,O=C(O)c1ccccc1S(=O)(=O)c1ccccc1CO
-6%,COC(=O)c1cc(C(=O)Nc2ccc(Cl)cn2)cc([N+](=O)[O-])c1
4%,CCOc1ncccc1C(=O)OCC(=O)c1ccc(C)c(C)c1
-12%,Cc1ccc(-c2cc3ncc4c(n3n2)-c2cc(C)ccc2OC4)cc1
2%,CC(C)(C)[C@H]1COC(=O)CCC/C=C/C[C@H](CC(=O)NCCO)C(=O)N1
-12%,O=C(C1CC1)N1CCc2cc(Br)cc(S(=O)(=O)N3CCN(c4ccccc4F)CC3)c21
-18%,Cc1nnc(SCC(=O)NC(C)(C)C)n1NCc1ccc(Cl)cc1
-3%,COCCNC(=O)C(c1ccc(F)cc1)N(C(=O)CCC(=O)Nc1ccccn1)c1cccc(C)c1 (configuration not stated)
-7%,COc1ccc(-c2oc(=O)c3cc(OC)c(OC)cc3c2C#C[C@]2(O)CC[C@H]3[C@@H]4CCc5cc(OC)ccc5[C@H]4CC[C@@]32C)cc1
-16%,CCOC(=O)NC1=NCC(C)S1 (configuration not stated)
-6%,CC(=O)Nc1ccc2nc(NC(=O)CS(=O)(=O)c3ccccc3)sc2c1
-22%,NS(=O)(=O)c1cnccc1Nc1ccc(Cl)c(Cl)c1
?,Cc1cc(C)c(S(=O)(=O)N2CCCCC2CCNC(=O)C(=O)NC2CC2)c(C)c1 (configuration not stated)
-14%,CC(=O)C[C@H](O)CC(=O)[C@H]1OC(=O)CCCCC/C=C/Cc2ccccc21
-1%,CC(=O)Nc1ccc(C=NNc2ccc([N+](=O)[O-])cn2)cc1
-6%,N=c1c(C(=O)NCC2CCCO2)cc2c(=O)n3ccccc3nc2n1Cc1ccccc1 (configuration not stated)
?,COc1ccccc1CCNC(=O)C(=O)c1cn(CC(=O)N2CCOCC2)c2ccccc12
-2%,Cc1nn(-c2ccc(F)cc2)c(Cl)c1/C=C1\C(=O)Nc2ccccc21
-3%,CCOC(=O)N1CCN(C(=O)c2cn(C)c3ccc(S(=O)(=O)N4CCOCC4)cc3c2=O)CC1
?,CCCCn1c(=O)n(C)c(=O)c2c(C(F)(F)F)cc(-c3ccncc3)nc21
-14%,Cc1ccc(NC(=S)N2CCCC(c3nc4ccccc4[nH]3)C2)cc1 (configuration not stated)
9%,O=C(NCCN1CCCCC1)c1cc(OCC(F)(F)F)ccc1OCC(F)(F)F
4%,COc1ccc(C2C3=C(CC(C)(C)CC3=O)N(C)C3=C2C(=O)CC(C)(C)C3)cc1
?,COc1ccccc1CN1CC[C@@]2(CCCN(C(=O)c3c(C)noc3C)C2)C1
-7%,CC1Sc2ccc(S(=O)(=O)N3CCN(c4ccccc4)CC3)cc2NC1=O (configuration not stated)
4%&2%,COc1cccc(N2CCN(C(=O)C3CCCN(S(=O)(=O)c4ccc5c(c4)oc(=O)n5C)C3)CC2)c1 (configuration not stated)
-8%,COC(=O)c1ccccc1S(=O)(=O)N1CCC(C(=O)N2CCC2)CC1
6%,O=C(c1cccs1)N(C(=O)c1cccs1)c1ccccn1
-7%,COc1ccc(-c2c(-c3ccccc3OC)oc3ccccc23)cn1
2%,CSc1sc(C(=O)NC(=O)NCc2cccnc2)c(C)c1-c1ccon1
14%,COc1ccc(OC)c(NC(=O)CC2C(=O)NCCN2C(=O)C(F)(F)F)c1 (configuration not stated)
-29%,CC(=O)Nc1ccc(NC(=O)COC(=O)C2CCCCC2)cc1
-12%,CN(C(=O)c1cc(-c2ccccc2O)on1)c1ccccc1
?,Cn1c(=NC(=O)C(C)(C)C)sc2cccc(F)c21
-3%,CC12CC3(C)CC(C)(C1)CC(NC(=O)N1CCCC1)(C2)C3
2%,O=C(CSc1cc(Cl)ccc1Cl)Nc1ccc(N2CCOCC2)cc1
-5%,COc1ccc(NC(=O)CN(C)CC(=O)Nc2ccc(C)c(S(=O)(=O)N3CCCCC3)c2)cc1
-4%,O=C(O)c1ccc(O)c(N2C(=O)Nc3ccccc3N2O)c1
-2%,COC(=O)C1=C(C)N(C)C(=O)NC1c1c(OC)ccc2ccccc12 (configuration not stated)
?,O=[N+]([O-])c1ccc(C2CC(c3ccccc3)=Nc3ccccc3S2)cc1 (configuration not stated)
-9%,O=C(/C=C/c1ccco1)NCC1OCCc2ccccc21 (configuration not stated)
-2%,CC(=O)NC1C(OCc2cccc(Br)c2)OC(COC(C)=O)C(OC(C)=O)C1OC(C)=O (configuration not stated)
11%,O=C(Nc1ccc(C(F)(F)F)cc1)N1CCC(N2CCCCC2)CC1

(cont.)
VDR inh,structure
9%,Cc1cc(C)n2nc(CNC(=O)c3cccc(Cl)c3)nc2n1
5%,CSc1ncc(Cl)c(C(=O)Nc2c(C(=O)c3ccc(Cl)cc3)oc3ccccc23)n1
-10%,Cc1cc(C)c(NS(=O)(=O)c2c(C)noc2C)c(C)c1
-2%,Nc1ncnc2c1[nH]c(=S)n2C1OC(CO)C(O)C1O (configuration not stated)
-11%,COc1ccc(S(=O)(=O)N2CCOC2CNC(=O)C(=O)NCCN2CCOCC2)cc1OC (configuration not stated)
11%,COc1ccc(OC)c(NC(=O)CCN2C(=O)c3cccc([N+](=O)[O-])c3C2=O)c1
7%,Cc1ccc2c(c1)c(=O)c1ccccc1n2CCCC(=O)Nc1cc(Cl)ccc1C
19%,Cc1ccc(C)c(CN2C(=O)C3(OCCCO3)c3ccccc32)c1
-18%,Cc1cc(=O)n2c3ccccc3n(CC(O)CN3CCC(C)CC3)c2c1C#N (configuration not stated)
-25%,O=C(OCc1nnn(Cc2ccccc2)c1-c1c(COC(=O)c2ccccc2)nnn1Cc1ccccc1)c1ccccc1
-11%,COc1cccc(-c2nc(N3CCN(c4ccccc4)CC3)c3ccccc3n2)c1O
-14%,Cc1cccc(-n2cc(CNCCN3CCOC3=O)c(-c3cccc(F)c3)n2)c1
19%,NC(C(=O)O)[C@@H]1CC(Cl)=NO1 (some centres not stated)
-2%,CCS(=O)(=O)n1nc(-c2ccccc2)cc1N
10%,Cc1cccnc1NC(=O)CCCc1c[nH]c2ccccc12
8%,CC(=O)Oc1ccc(/C=N/NC(=O)c2ccc(N(C)S(=O)(=O)c3ccccc3)cc2)cc1
3%,NC(=O)CC(NC(=O)c1cccc(Br)c1)c1ccc(NC2CCCCCCCCCCC2)c([N+](=O)[O-])c1 (configuration not stated)
15%,O=C(Cn1c(SCCOc2ccccc2Cl)nc2ccccc21)N1CCOCC1
3%,CCOC(=O)N1CCN(C(=O)c2ccc(Cn3c(=S)[nH]c4ccc(Br)cc4c3=O)cc2)CC1
-18%,O=C(NCc1ccc2c(c1)OCO2)c1ccc2c(c1)S(=O)(=O)c1ccccc1C2=O
-9%,C=CCNC(=O)c1cnn(-c2ccccc2)c1-c1ccccc1
3%,NCCCC[C@H]1CNC(=S)N1CCCCC1CCCCC1

Not a retest: 16 of the compounds above.
VDR inh,structure
4%,CCOc1ncccc1C(=O)OCC(=O)c1ccc(C)c(C)c1
-12%,Cc1ccc(-c2cc3ncc4c(n3n2)-c2cc(C)ccc2OC4)cc1
2%,CC(C)(C)[C@H]1COC(=O)CCC/C=C/C[C@H](CC(=O)NCCO)C(=O)N1
-12%,O=C(C1CC1)N1CCc2cc(Br)cc(S(=O)(=O)N3CCN(c4ccccc4F)CC3)c21
-18%,Cc1nnc(SCC(=O)NC(C)(C)C)n1NCc1ccc(Cl)cc1
-3%,COCCNC(=O)C(c1ccc(F)cc1)N(C(=O)CCC(=O)Nc1ccccn1)c1cccc(C)c1 (configuration not stated)
-7%,COc1ccc(-c2oc(=O)c3cc(OC)c(OC)cc3c2C#C[C@]2(O)CC[C@H]3[C@@H]4CCc5cc(OC)ccc5[C@H]4CC[C@@]32C)cc1
-16%,CCOC(=O)NC1=NCC(C)S1 (configuration not stated)
-6%,CC(=O)Nc1ccc2nc(NC(=O)CS(=O)(=O)c3ccccc3)sc2c1
-22%,NS(=O)(=O)c1cnccc1Nc1ccc(Cl)c(Cl)c1
?,Cc1cc(C)c(S(=O)(=O)N2CCCCC2CCNC(=O)C(=O)NC2CC2)c(C)c1 (configuration not stated)
-14%,CC(=O)C[C@H](O)CC(=O)[C@H]1OC(=O)CCCCC/C=C/Cc2ccccc21
-1%,CC(=O)Nc1ccc(C=NNc2ccc([N+](=O)[O-])cn2)cc1
-6%,N=c1c(C(=O)NCC2CCCO2)cc2c(=O)n3ccccc3nc2n1Cc1ccccc1 (configuration not stated)
?,COc1ccccc1CCNC(=O)C(=O)c1cn(CC(=O)N2CCOCC2)c2ccccc12
-2%,Cc1nn(-c2ccc(F)cc2)c(Cl)c1/C=C1\C(=O)Nc2ccccc21
